# 2A StopGo = High Throughput Screening for Foot and Mouth Disease Virus Antivirals. Potency, µM (top dose mostly 57.9 µM), for the others: at the top dose signal change, negative = less light. human cells with a luciferase reporter of 2A StopGo recoding; control for the full effect not named in the record. 1.2% of 410,000 active; active = well fitted falling curve with a large enough effect; inconclusive = small, poorly fitted or top-dose-only effect; inactive = no such curve, though single readings can be large or run the other way; tested in HEK293T cells; note: % is set by controls: 0 for no effect and ±100 for the full control effect; nearly all actives have a fitted effect of over 45% in size; luciferase light after 4 h
# SARS PLpro yeast = qHTS of Yeast-based Assay for SARS-CoV PLP; Potency, µM (series often up to 32.9 µM), for the others: top-dose activity, positive = growth rescue; S. cerevisiae expressing SARS-CoV PLpro, growth rescue; control for the full effect not named in the record; 0.19% of 330,000 active; active means well fitted rising curve with a large enough effect; inconclusive means small, poorly fitted or top-dose-only effect; inactive means no such curve, though single readings can be large or run the other way; note: 0% is about no effect; nearly all actives have a fitted effect of over 55% in size; growth read by luminescence after 48 h
# RE007 growth inh = qHTS Assay for Inhibitors of the HIV-1 protein Vpr; S. pombe RE007 Vpr strain, BacTiter-Glo ATP luminescence, 24 h; control for the full effect not named in the record; Potency, µM (highest dose often 92.2 µM), without a hit: top-dose activity change, negative = less growth; 0.21% of 360,000 active; active = well fitted falling curve with a large enough effect; inconclusive = small, poorly fitted or top-dose-only effect; inactive = no such curve, though single readings can be large or run the other way;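 note: % is set by controls: 0 for no effect and ±100 for the full control effect; nearly all actives have a fitted effect of over 50% in size; the assay follows cell death caused by Vpr and the record does not say whether a fall means rescue or toxicity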
#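 Fission yeast strain RE007, carrying one chromosomally integrated HIV-1 vpr copy, was seeded at OD 0.01 in PMG+AL medium with 23 nL pinned compound. After 24 h at 30 °C and 99% humidity, viability was read by BacTiter-Glo luminescence.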
# * = called active by the depositor; u = inconclusive; [ ] = another dose, or the depositor's remark. Potency is the fitted concentration of half-maximal effect. Some of the compounds tested, so the mix of outcomes need not match the whole.
> O=C(/C=C/c1ccccc1[N+](=O)[O-])NCCc1ccc(F)cc1
  2A StopGo = 33%[activator]; SARS PLpro yeast = 0%; RE007 growth inh = -1%
> CN(C)S(=O)(=O)c1ccc(Cl)c(C(=O)OCC(=O)c2ccco2)c1
  2A StopGo = -6%; SARS PLpro yeast = 8%; RE007 growth inh = -5%
> O=C(Nc1cccc(Cl)c1)c1nc[nH]c1C(=O)NCCN(CCNC(=O)c1[nH]cnc1C(=O)Nc1cccc(Cl)c1)CCNC(=O)c1[nH]cnc1C(=O)Nc1cccc(Cl)c1
  2A StopGo = -18%; SARS PLpro yeast = 5%; RE007 growth inh = -10%
> CN(Cc1ccc(C(C)(C)C)cc1)C(=O)C1CSC2(C)CCC(=O)N12 (stereo not drawn)
  2A StopGo = -24%; SARS PLpro yeast = -11%; RE007 growth inh = -9%
> Cc1cccc(C(=O)N[C@H](C(=O)Nc2ccc(C)c(S(=O)(=O)N(C)C)c2)C(C)C)c1
  2A StopGo = 4%; SARS PLpro yeast = -1%; RE007 growth inh = -1%
> CN(C(=O)c1ccc(NC(=O)C2CCN(C(=O)OC(C)(C)C)CC2)cc1)C1CCC1
  2A StopGo = -21%; SARS PLpro yeast = -10%; RE007 growth inh = -3%
> COc1cc(C(=O)N2CCCCC2)ccc1OCC(=O)Nc1ccc(F)cc1
  2A StopGo = -23%; SARS PLpro yeast = -4%; RE007 growth inh = -5%
> CC(C(=O)NCC(=O)Nc1ccc(F)c(F)c1F)N1CCN(c2ccc(O)cc2)CC1 (stereo not drawn)
  2A StopGo = 0%; SARS PLpro yeast = 0%; RE007 growth inh = 3%
> C[C@H](N)C(=O)NC[C@H]1O[C@@H](n2cnc3c(N)ncnc32)[C@H](O)[C@@H]1O
  2A StopGo = -22%; SARS PLpro yeast = 15%; RE007 growth inh = -15%
> NC(=O)C(=O)N/N=C/c1c(F)c(F)c(F)c(F)c1F
  2A StopGo = -27%; SARS PLpro yeast = -2%; RE007 growth inh = -14%
> COC(=O)c1ccc(/C=C/c2c(-c3ccc(OC)cc3)sc3ccccc23)cc1
  2A StopGo = -2%; SARS PLpro yeast = -5%; RE007 growth inh = -13%
> C/C(=C\c1ccccc1)CN1CCC(C(=O)N2CCCC(C)C2)CC1 (stereo not drawn)
  2A StopGo = -3%; SARS PLpro yeast = -1%; RE007 growth inh = -18%
> COc1ccc(CNC(=O)CCNS(=O)(=O)c2ccc(NC(C)=O)cc2)cc1OC
  2A StopGo = -14%; SARS PLpro yeast = 7%; RE007 growth inh = -8%
> CCCNC(=O)N1[C@H]2CC[C@@H]1C(C(=O)OC)=C(c1ccc(Cl)c(C(F)(F)F)c1)C2
  2A StopGo = -23%; SARS PLpro yeast = -1%; RE007 growth inh = 6%
> CC(C)CCn1c(N2CCc3ccccc3C2)nc2c1c(=O)[nH]c(=O)n2C
  2A StopGo = u; SARS PLpro yeast = 0%; RE007 growth inh = 9%

> O=[N+]([O-])c1ccc(Cl)c(S(=O)(=O)NCCc2ccccn2)c1
  2A StopGo = 7%; SARS PLpro yeast = 1%; RE007 growth inh = 2%
> CN(C)S(=O)(=O)c1ccc(N2CCOCC2)c(C(=O)NCc2ccc3c(c2)OCO3)c1
  2A StopGo = 10%; SARS PLpro yeast = -6%; RE007 growth inh = 0%
> COc1ccccc1NC(=O)COc1ccc(C(=O)NCc2ccccc2)cc1OC
  2A StopGo = -26%; SARS PLpro yeast = -4%; RE007 growth inh = 10%
> CN(CC(=O)Nc1ccc2c(c1)OCO2)CC(=O)Nc1ccc(F)c(F)c1F
  2A StopGo = -10%; SARS PLpro yeast = -4%; RE007 growth inh = -4%
> Cn1c(SCC(=O)Nc2ccc3c(c2)OCCO3)nnc1C(F)(F)F
  2A StopGo = 3%; SARS PLpro yeast = -8%; RE007 growth inh = 10%
> COc1ccc(/C=C2/NC(=O)N(Cc3ccccc3F)C2=O)cc1OC
  2A StopGo = 4%; SARS PLpro yeast = -5%; RE007 growth inh = 0%
> N#CCCN1CCN(S(=O)(=O)c2ccc(C3CCCCC3)cc2)CC1
  2A StopGo = -16%; SARS PLpro yeast = 1%; RE007 growth inh = -5%
> COc1ccc(-c2noc(CCC(=O)N3CCN(c4cccc(Cl)c4)CC3)n2)cc1
  2A StopGo = u; SARS PLpro yeast = 13%; RE007 growth inh = 2%
> C/C(CCc1ccco1)=N\NC(=O)CNc1cccc2ccccc12
  2A StopGo = -2%; SARS PLpro yeast = 1%; RE007 growth inh = 5%
> CCOc1ccc(-c2nnc(SCC(=O)NC3CC3)o2)cc1
  2A StopGo = 47%[activator]; SARS PLpro yeast = 1%[6.58 µM]; RE007 growth inh = 6%
> O=C(CNC(=O)c1ccc(S(=O)(=O)N2CCCC2)cc1)N/N=C/c1ccco1
  2A StopGo = 11%; SARS PLpro yeast = 1%; RE007 growth inh = -3%
> COc1cc(C)c(CN2CCN(CC(=O)Nc3ccccc3C(=O)NC3CC3)CC2)cc1OC
  2A StopGo = -18%; SARS PLpro yeast = -6%; RE007 growth inh = 2%
> Cc1ccccc1Cn1cc(NC(=O)c2cc(-c3ccco3)on2)cn1
  2A StopGo = 26%; SARS PLpro yeast = -5%; RE007 growth inh = 1%
> CC(=O)c1ccc(N2CCN(c3ccc(S(=O)(=O)NCCCN(C)C)cc3[N+](=O)[O-])CC2)cc1
  2A StopGo = -20%; SARS PLpro yeast = 0%; RE007 growth inh = -9%
> CCN1C(=O)[C@H]2[C@@H](c3ccc(-c4ccccc4)cc3)N[C@@](C)(C(=O)OC)[C@H]2C1=O
  2A StopGo = -16%; SARS PLpro yeast = 2%; RE007 growth inh = -8%

# Continued (3 carried over from the part before).
canonical_smiles,2A StopGo,SARS PLpro yeast,RE007 growth inh
Cc1ccccc1Cn1cc(NC(=O)c2cc(-c3ccco3)on2)cn1,26%,-5%,1%
CC(=O)c1ccc(N2CCN(c3ccc(S(=O)(=O)NCCCN(C)C)cc3[N+](=O)[O-])CC2)cc1,-20%,0%,-9%
CCN1C(=O)[C@H]2[C@@H](c3ccc(-c4ccccc4)cc3)N[C@@](C)(C(=O)OC)[C@H]2C1=O,-16%,2%,-8%
CC(OC(=O)c1cc2ccccc2[nH]1)C(=O)N(C)c1ccccc1 (stereo not drawn),0%,-2%,-11%
O=C(CN1CCN(C(=O)c2ccccc2)CC1)Nc1cc(S(=O)(=O)N2CCCC2)ccc1Cl,-18%,3%,-19%
COc1ccc2sc(-c3ccc(S(C)(=O)=O)cc3)c(-c3ccc(C(N)=O)cc3)c2c1,-18%,-15%,-17%
O=C1[C@@H](Oc2ccccc2)[C@@H](c2ccncc2)N1c1ccncc1,u,-14%,-18%
Cn1cc(CC(=O)NCCN2CCOCC2)c2ccccc21,16%,-6%,-4%
CCCCCC#CCN1CCN(C23CC4CC(CC(C4)C2)C3)CC1,-9%,-8%,-9%
Cc1ccc(C(=O)OCC(=O)Nc2ccccc2)cc1S(=O)(=O)N1CCCCC1,9%,-7%,17%
Cc1cccc([C@@H]2[C@@H]3C(=O)N(Cc4ccccc4)C(=O)[C@@H]3[C@]3(Cc4ccccc4)C(=O)N(c4ccc(C(F)(F)F)cc4)C(=O)N23)c1,-21%,0%,4%
O=C(COC(=O)c1ccccc1F)NC(=O)NC1CCCC1,10%,-19%,-7%
Cc1ccccc1-c1cc(C(=O)NCC2CC2)n(CC2CC(c3cccnc3)=NO2)n1 (stereo not drawn),-13%,0%,10%
O=S(=O)(O)c1cc2oc(-c3ccccc3)nc2c2ccccc12,19%,4%,285%
COC(=O)C1=C(c2ccc(F)cc2OCc2ccccc2)C[C@@H]2CC[C@H]1N2C(=O)NCc1ccc(C)cc1,-3%,-3%,-3%
COC(=O)[C@@H]1OC(=O)[C@H]2O[C@@]23[C@@]1(C)CC[C@@H]1[C@@]2(C)C=CC(=O)OC(C)(C)[C@@H]2CC(=O)[C@]13C,-12%,3%,-2%
O=[N+]([O-])c1ccc(N2CCOCC2)cc1N1CCCCC1,-11%,-3%,u
COc1ccc(-c2c(-c3cc(OC)cc(OC)c3)n(C)c3ccc(-c4ccc(OC)cc4F)cc23)cc1,-10%,1%,6%
Cc1nc2ccccc2n1CC(O)COc1ccccc1Cl (stereo not drawn),u,5%,-13%
CC1(C)O[C@@H]2[C@H](O1)[C@@H](COS(=O)(=O)O)O[C@H]2n1cc(Br)c(=O)[nH]c1=O,-5%,4%,2%
CC1CCN(C(=O)c2[nH]cnc2C(=O)N2CCN(c3ccccc3)CC2)CC1,-14%,1%,-8%
COCc1c(C(=O)OCC(=O)NCc2ccco2)oc2ccccc12,-2%,1%,1%
C[C@@H]1CN([C@H](C)CO)C(=O)c2cc(NC(=O)Nc3ccc4c(c3)OCO4)ccc2O[C@H]1CN(C)Cc1ccncc1,-6%,5%,-6%
CN(C(=O)c1cccc(NC(=O)Cc2cccc([N+](=O)[O-])c2)c1)C1CC1,42%[activator],-12%,4%
C=CC[C@@H](CC(=O)N(CCO)Cc1ccccc1)C(=O)NC[C@@H](OC(=O)[C@@H](CC=C)Cc1ccc(F)cc1)c1ccccc1,u,4%,16%
CCCCNc1c(-c2ccc(-c3ccc(C(C)=O)cc3)c(OC)c2)nc2cc(C)ccn12,u,-31%,-13%
C[C@@H](OC(=O)c1[nH]cnc1C(=O)NCc1ccc(CNC(=O)OC(C)(C)C)cc1)c1ccccc1,32µM*,0%,-5%
O=C(COC(=O)c1cc(NS(=O)(=O)c2cccs2)ccc1O)Nc1cc(Cl)ccc1Cl,u,0%,11%
COC(=O)CSc1ccc(S(=O)(=O)N2CCCCCC2)cc1[N+](=O)[O-],-8%,0%,-13%
Cc1cc([N+](=O)[O-])cc2c1NC(=O)C2(O)N1CCOCC1 (stereo not drawn),-19%,-2%,8%
CCCCN(C(=O)C1=NN(c2ccccc2)C(=O)CC1)c1c(N)n(CCC)c(=O)[nH]c1=O,-9%,4%,-5%
COc1ccc(-n2c(O)c(C=NCC(c3ccco3)N3CCCC3)c3ccccc3c2=O)cc1OC (stereo not drawn),-25%,0%,6%
COc1cc(C(=O)OC(C)c2ccc(F)cc2)ccc1OCC(=O)N1CCOCC1 (stereo not drawn),-20%,0%,5%

# Results in RE007 growth inh (two entries from above):
compound	RE007 growth inh
Cc1cccc([C@@H]2[C@@H]3C(=O)N(Cc4ccccc4)C(=O)[C@@H]3[C@]3(Cc4ccccc4)C(=O)N(c4ccc(C(F)(F)F)cc4)C(=O)N23)c1	4%
O=C(COC(=O)c1ccccc1F)NC(=O)NC1CCCC1	-7%

# Returning to the listing with the five entries that preceded the break.
canonical_smiles,2A StopGo,SARS PLpro yeast,RE007 growth inh
COC(=O)CSc1ccc(S(=O)(=O)N2CCCCCC2)cc1[N+](=O)[O-],-8%,0%,-13%
Cc1cc([N+](=O)[O-])cc2c1NC(=O)C2(O)N1CCOCC1 (stereo not drawn),-19%,-2%,8%
CCCCN(C(=O)C1=NN(c2ccccc2)C(=O)CC1)c1c(N)n(CCC)c(=O)[nH]c1=O,-9%,4%,-5%
COc1ccc(-n2c(O)c(C=NCC(c3ccco3)N3CCCC3)c3ccccc3c2=O)cc1OC (stereo not drawn),-25%,0%,6%
COc1cc(C(=O)OC(C)c2ccc(F)cc2)ccc1OCC(=O)N1CCOCC1 (stereo not drawn),-20%,0%,5%
COc1ccc(-c2cccc(CCC(=O)N3CCN(c4cc(C)ccc4C)CC3)c2)cc1,u,-10%,-3%
O=C(COC(=O)c1c(Cl)cccc1Cl)Nc1cccc(S(=O)(=O)NC2=NCCCCC2)c1,-8%,-3%,-9%
O=C(CNC(=O)c1cccc(F)c1)N/N=C/c1ccc([N+](=O)[O-])s1,-7%,4%,14%
O=C(Nc1nccs1)C1CC=CCC1C(=O)OCC(F)(F)C(F)F (stereo not drawn),-7%,-8%,3%
CC(=O)c1c(C)[nH]c(C(=O)CN2CCN(S(=O)(=O)c3ccccc3[N+](=O)[O-])CC2)c1C,u,8%,3%
O=C(O)c1cccc(Sc2cc(Cl)ccc2C(=O)O)c1,18%,1%,3%
Cc1cccc(NC(=O)c2cc3cc([N+](=O)[O-])ccc3s2)n1,10%,-1%,-6%
COc1cc2c(cc1OC)[C@@H](NC(=O)Cc1ccc(F)cc1)[C@H](OCc1ccccc1)C2,-7%,2%,11%

# Already shown: 6 of the compounds above.
canonical_smiles,2A StopGo,SARS PLpro yeast,RE007 growth inh
COc1cc(C(=O)OC(C)c2ccc(F)cc2)ccc1OCC(=O)N1CCOCC1 (stereo not drawn),-20%,0%,5%
COc1ccc(-c2cccc(CCC(=O)N3CCN(c4cc(C)ccc4C)CC3)c2)cc1,u,-10%,-3%
O=C(COC(=O)c1c(Cl)cccc1Cl)Nc1cccc(S(=O)(=O)NC2=NCCCCC2)c1,-8%,-3%,-9%
O=C(CNC(=O)c1cccc(F)c1)N/N=C/c1ccc([N+](=O)[O-])s1,-7%,4%,14%
O=C(Nc1nccs1)C1CC=CCC1C(=O)OCC(F)(F)C(F)F (stereo not drawn),-7%,-8%,3%
CC(=O)c1c(C)[nH]c(C(=O)CN2CCN(S(=O)(=O)c3ccccc3[N+](=O)[O-])CC2)c1C,u,8%,3%

# Screening data deposited in PubChem by National Center for Advancing Translational Sciences (NCATS).
